# Screens (PubChem)
# KCNQ2 block – KCNQ2 potassium channel inhibitors, primary screen, cell-based, CHO-K1, FluxOR thallium flux, B-score (AID 2156); Potassium voltage-gated channel subfamily KQT member 2 (Rattus norvegicus), O88943; 20 min; hits give low values; only compounds with negative scores are shown here; some inactives read as strong as hits; B-score at 10 µM; 1.1% of 310,000 active;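 active means fluorescence ratio B-score at most minus 3 library SDs, with starting brightness B-score within 2 library SDs, cut at about -5.5 in these data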
# Target sequence (O88943 whole entry, looked up): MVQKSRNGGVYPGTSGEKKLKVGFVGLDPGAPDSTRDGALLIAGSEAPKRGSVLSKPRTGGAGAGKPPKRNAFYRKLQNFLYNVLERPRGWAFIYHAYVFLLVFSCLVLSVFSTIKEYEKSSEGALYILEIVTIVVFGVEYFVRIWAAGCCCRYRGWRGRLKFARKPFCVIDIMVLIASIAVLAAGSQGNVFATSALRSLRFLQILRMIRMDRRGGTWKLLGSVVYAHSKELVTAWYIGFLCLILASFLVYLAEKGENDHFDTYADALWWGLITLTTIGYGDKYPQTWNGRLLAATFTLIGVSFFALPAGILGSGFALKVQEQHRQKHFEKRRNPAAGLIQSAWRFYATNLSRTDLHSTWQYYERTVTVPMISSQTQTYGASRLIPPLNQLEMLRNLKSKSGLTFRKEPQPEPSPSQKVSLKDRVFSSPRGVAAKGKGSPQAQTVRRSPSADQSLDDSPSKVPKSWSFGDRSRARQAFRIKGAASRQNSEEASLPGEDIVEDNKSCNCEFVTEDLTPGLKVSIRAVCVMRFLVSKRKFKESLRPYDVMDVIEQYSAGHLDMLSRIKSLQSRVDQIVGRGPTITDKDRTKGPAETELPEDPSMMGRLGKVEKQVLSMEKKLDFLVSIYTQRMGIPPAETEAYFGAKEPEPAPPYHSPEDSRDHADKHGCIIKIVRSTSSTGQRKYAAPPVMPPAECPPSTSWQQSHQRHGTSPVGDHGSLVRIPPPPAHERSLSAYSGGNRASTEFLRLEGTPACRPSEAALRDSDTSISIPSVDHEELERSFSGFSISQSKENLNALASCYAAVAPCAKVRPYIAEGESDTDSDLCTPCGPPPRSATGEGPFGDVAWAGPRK
# KCNQ2 block baseline – second read-out of KCNQ2 block, no call of its own (marks repeat the call); B-score; measured here: initial fluorescence intensity artifact check;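 brightness before thallium and not channel activity; 0 = typical well and far values either way flag optical interference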
# An asterisk follows results filed as active; i = inactive. An excerpt. The share of hits here may be higher or lower than overall.
compound	KCNQ2 block	KCNQ2 block baseline
N#CCCN(C(=O)CSc1nc(-c2ccccc2)cn1N)c1ccc(F)cc1	i	-1.4
CCNc1ccc(C(=O)NN=C2CCCC2)cc1[N+](=O)[O-]	i	0.71
Cc1[nH]n(-c2ccccc2)c(=O)c1/C=N\NC(=O)C1COc2ccccc2O1 (configuration not stated)	i	-0.51
S=c1[nH]nc(-c2ccc3ccccc3n2)n1-c1ccc2c(c1)OCCO2	i	0.7
CCOC(=O)C1CCN(C(=O)c2ccc3c(SCC(=O)O)c4c(nc3c2)CCCC4)CC1	i	1.4
Cc1ccc(-c2n[nH]c(=S)n2-c2ccccc2)cc1	i	0.23
O=C(NC1CCCc2c1cnn2-c1cc(F)cc(F)c1)c1ccccn1 (configuration not stated)	i	0.84
CCOC(=O)N1CCN(S(=O)(=O)c2ccc(C)cc2)CC1	i	-0.65
CCn1nnnc1NCc1cccn1C	i	-1.9
CC(NC(=O)COc1cccnc1[N+](=O)[O-])c1ccc(F)cc1 (configuration not stated)	i	0.86
COC(=O)c1cccc(NC(=O)CCNC(=O)c2ccco2)c1	i	-1.3
COc1ccc(NS(=O)(=O)c2cc3c4c(c2)CCN4C(=O)CC3)c(OC)c1	i	-0.75
Cc1cccc2[nH]c(SCC(=O)N3CCOCC3)nc12	i	1.4
COc1ccc(CCNC(=O)C(=O)NCC2OCCN2S(=O)(=O)c2ccc(OC)cc2)cc1 (configuration not stated)	i	0.1
CC(C)(C)S(=O)(=O)c1cnc2c(-c3ccc(Cl)cc3)cnn2c1N	i	1.5
O=C(NCC1CCCO1)c1ccc(CS(=O)(=O)Cc2ccc(F)cc2)o1 (configuration not stated)	i	-1.2
CC(=O)c1ccc(S(=O)(=O)Nc2ccc(N3CCOCC3)cc2)cc1	i	-1.3
CC1CCCCC1NC(=O)Cn1c(CN2CCCCC2)nc2ccccc2c1=O (configuration not stated)	i	0.5
COC(C(=O)N/N=C(\C)CC(=O)Nc1ccc(Cl)cc1C)c1ccccc1 (configuration not stated)	i	-1.4
CCOc1ccc(CCNC(=O)C2CC(=O)N(Cc3ccc(C)cc3)C2)cc1OCC (configuration not stated)	i	-0.31

# 2 entries drawn at random from those above:
compound	KCNQ2 block	KCNQ2 block baseline
Cc1cccc2[nH]c(SCC(=O)N3CCOCC3)nc12	i	1.4
O=C(NCC1CCCO1)c1ccc(CS(=O)(=O)Cc2ccc(F)cc2)o1 (configuration not stated)	i	-1.2

# Taken from above.
# COc1ccc(NS(=O)(=O)c2cc3c4c(c2)CCN4C(=O)CC3)c(OC)c1 @ KCNQ2 block baseline: -0.75
# N#CCCN(C(=O)CSc1nc(-c2ccccc2)cn1N)c1ccc(F)cc1 @ KCNQ2 block baseline: -1.4
# CCn1nnnc1NCc1cccn1C @ KCNQ2 block baseline: -1.9
# O=C(NC1CCCc2c1cnn2-c1cc(F)cc(F)c1)c1ccccn1 (configuration not stated) @ KCNQ2 block baseline: 0.84

# (cont.)
compound	KCNQ2 block	KCNQ2 block baseline
CNS(=O)(=O)c1ccc2c(c1)NC(=O)C1CCCN21 (configuration not stated)	i	-0.12
O=C(c1cc(-c2ccc(Br)cc2)on1)N1CCCC1	i	0.92
CC(C)(C)c1nnc(N/N=C/c2ccccc2)n(N)c1=O	i	-0.33
C/C(=N\NC(=O)C1(C)CC1(Br)Br)c1cccc(NC(=O)c2ccc(C)o2)c1 (configuration not stated)	i	-1
CC1CCCC(C)N1/N=C/c1ccccc1OC(F)F (configuration not stated)	i	-0.38
CCOc1ccc(OCC)c(S(=O)(=O)N2CCC(C)CC2)c1	i	0.04
COc1ccc(CN2CCN(Cc3ccon3)CC2CCO)c(C)c1C (configuration not stated)	i	0.03
O=C(Nc1ccccc1)O/N=C/c1ccncc1	i	-1.7
O=C(CNC(=O)c1ccc(Br)o1)NCc1ccc(Cl)cc1	i	-0.31
FC(F)(F)c1ccccc1C1=CC(c2ccccc2)n2ncnc2N1 (configuration not stated)	i	0.8
CCOC(=O)Nc1ccc2c(c1)N(C(=O)N(CC)CC)c1ccccc1CC2	i	0.66
COc1ccc2oc(C(=O)c3ccccc3)c(NC(=O)CN3CCN(C)CC3)c2c1	i	-1.4
O=c1c(C=NCCCn2ccnc2)c(-c2ccccc2)[nH]n1-c1nc2ccccc2s1	i	3.6
CCOC(=O)C1=C(COC(=O)/C=C/c2ccccc2)NC(=O)NC1C (configuration not stated)	i	0.14
Cc1ccc2oc(=O)cc(/C=C/c3ccccc3)c2c1	i	0.25
COC(=O)c1cc(OC)c(OC)cc1NC(=O)c1ccc(OC)cc1	i	0.67
Cc1ccc(Oc2ccc(C(F)(F)F)cc2[N+](=O)[O-])c([N+](=O)[O-])n1	i	-0.01
CCCN(CCC)C(=O)c1cc2c(=O)n3cccc(C)c3nc2s1	i	-1.6
COc1ccc(/C=C/c2ccc3ccccc3[n+]2C)cc1OC	i	1.7
CN1C(=O)C(C)(C)c2cc(S(=O)(=O)N3CCCCCC3)ccc21	i	2
COCCN(C(=O)Nc1ccc(OC)cc1)c1nc2ccccc2s1	i	0.02
CCN(CC)C(=O)COc1ccc(/C=N/NC(=O)c2cc(-c3ccccc3OC)nc3ccccc23)cc1OC	i	0.41
CCOC(=O)c1ccccc1NC(=O)Cc1sc(-c2cccnc2)nc1-c1ccc(C)cc1	i	-0.36
Cc1nn(C)c(C)c1/C=N/NC(=O)C(C)(C)Oc1ccc(Cl)cc1	i	0.98
CC(=O)NC(Cc1ccccc1)C(=O)NC1CCN(C(=O)c2cnccn2)CC1 (configuration not stated)	i	1.8
CCOC(=O)c1[nH]c2ccc(OC)cc2c1NC(=O)c1ccccc1C(=O)O	i	-0.09
Cn1c2ccccc2c(=O)c2c(=O)n(-c3ccccc3)c(-c3ccc(C(C)(C)C)cc3)nc21	i	-0.01
O=C(Nc1cccc(N2C(=O)C=CC2=O)c1)c1cccs1	i	2.1
C=CCOC(=O)CSCC(NC(=O)OC(C)(C)C)C(=O)OCC (configuration not stated)	i	0.52
CCOc1ccc(N2C(=O)c3ccc(C(=O)OCC(=O)N(CC)C4CCS(=O)(=O)C4)cc3C2=O)cc1 (configuration not stated)	i	0.65
COc1cc(NS(=O)(=O)c2cn(C)cn2)cc(OC)c1OC	i	-2.1
Cc1ccc(CNC(=O)C2CCN(C(=O)Nc3ccc(C)cc3)CC2)cc1	i	-0.12
C=CCC1(CC=C)CCCN1C(=O)c1cc(COc2ccccc2SC)on1	i	-1.4
Cc1cc(Cl)ccc1OCC(=O)N[C@@H](Cc1ccccc1)c1nc2ccccc2[nH]1	i	-0.04
CN1CCCN(C(=O)CNC(=O)Cc2ccccc2)CC1	i	1
CC(C)(C)C1(C)OC(C(=O)NC2CCCCC2)C(C(=O)NC2CCCCC2)O1 (configuration not stated)	i	-1.1
CC(C)c1ccc(NC(=O)C2CCCN(S(=O)(=O)c3cnc[nH]3)C2)cc1 (configuration not stated)	i	-1.6
CCC1(CC)Cc2ccccc2-c2nc(-c3ccccc3)oc(=O)c21	i	-0.92
COc1ccc(/C(C)=N/NC(=O)CNC(=O)Cc2ccccc2)c(OC)c1	i	1.2
O=C(NCCCN1CCCC1=O)c1cccc(S(=O)(=O)N2CCN(c3ccc(F)cc3)CC2)c1	i	-1.3

# Some of the entries above in a different format:
> CCOC(=O)c1[nH]c2ccc(OC)cc2c1NC(=O)c1ccccc1C(=O)O
  KCNQ2 block: i | KCNQ2 block baseline: -0.09
> CN1CCCN(C(=O)CNC(=O)Cc2ccccc2)CC1
  KCNQ2 block: i | KCNQ2 block baseline: 1

# (more compounds)
compound	KCNQ2 block	KCNQ2 block baseline
CCc1ccc(N2C(=O)c3cc(N4CCOCC4)c([N+](=O)[O-])cc3C2=O)cc1	i	-1.3
Cc1cc(-c2nnc(SCC(=O)Nc3ccccc3C)n2N)n[nH]1	i	-0.27
CC(O)C1C(=O)OC2(C)CC(C)(C)NC(=S)N12 (configuration not stated)	i	0.34
COCCCNC(=O)CSc1nc2ccc(N3CCOCC3)cc2c(=O)n1CCc1ccccc1	i	-1.2
O=S1(=O)CC/C(=N\Nc2ccccc2)c2ccsc21	i	2.2
Cc1cc(-c2ccc(C)c(S(=O)(=O)NCc3ccc(Br)cc3)c2)on1	i	0.63
CCc1ccc(-c2nn(-c3ccccc3)cc2C2SCC(=O)N2Cc2ccco2)cc1 (configuration not stated)	i	0.07
CN(C)S(=O)(=O)c1cccc(NC(=O)COC(=O)c2cn(-c3ccccc3)nc2-c2ccccc2)c1	i	-0.4
C/C(=N/NS(=O)(=O)c1ccc(C)cc1)c1ccc(NC(=O)C(F)(F)F)cc1	i	0.29
Cc1ccc([C@@H]2[C@@H]3C(=O)N(C)C(=O)[C@@H]3[C@]3(C)C(=O)N(Cc4ccccc4)CC(=O)N23)o1	i	0.01
O=C(/C=C/c1cccc([N+](=O)[O-])c1)N1CCN(c2ccccc2F)CC1	i	-1.3
Cc1cc(=O)n2ccccc2c1C#N	i	2.5
Cc1ccc(CC(=O)Nc2cccc(C)n2)cc1	i	2.4
COc1cc(OC)cc(C(=O)NCCCNC(=O)c2cccnc2)c1	i	-0.46
CCOC(=O)Cc1cc(=O)n2[nH]c(C(C)(C)C)cc2n1	i	0.1
CSc1ccc(/C=C(/NC(=O)c2ccco2)C(=O)N2CCCCC2)cc1	i	-0.65
CCOC(=O)C1CCN(C(c2cccc(OC)c2)c2sc3nc(C)nn3c2O)CC1 (configuration not stated)	i	0.23
CCOC(=O)c1c(C)oc2c1c1c(c3ccccc32)OCN(Cc2ccccn2)C1	i	-0.13
CCOc1ccccc1N1Cc2cc(C)c(C)cc2C1	i	1.3
N#CC(c1ccccc1)C1CCN(Cc2ccccc2)CC1 (configuration not stated)	i	-0.07

# Profiles as entered above. Screens in order: KCNQ2 block | KCNQ2 block baseline
# Listed for `COCCCNC(=O)CSc1nc2ccc(N3CCOCC3)cc2c(=O)n1CCc1ccccc1` : i | -1.2
# Listed for `CCOc1ccccc1N1Cc2cc(C)c(C)cc2C1` : i | 1.3
# Listed for `CC(O)C1C(=O)OC2(C)CC(C)(C)NC(=S)N12` (configuration not stated) : i | 0.34
# Listed for `O=C(/C=C/c1cccc([N+](=O)[O-])c1)N1CCN(c2ccccc2F)CC1` : i | -1.3
# Listed for `CCOC(=O)Cc1cc(=O)n2[nH]c(C(C)(C)C)cc2n1` : i | 0.1

# Other entries:
compound	KCNQ2 block	KCNQ2 block baseline
COc1ccc(CCN(C)C(=O)COc2ccc(N(C)S(=O)(=O)c3ccc(C)cc3)cc2)cc1OC	i	-0.27
CCn1c(=O)c(=O)[nH]c2cc(C(=O)NC3CCCC3)ccc21	i	0.89
Cc1ccc(S(=O)(=O)N2CCSC2)cc1C	i	0.65
COc1ccccc1-n1c(CNC(=O)c2cccc([N+](=O)[O-])c2C)n[nH]c1=S	i	-0.05
O=C(CCN1C(=O)C2CCCCC2C1=O)Nc1ccc(OC(F)F)cc1 (configuration not stated)	i	-3.4
CC(=O)CSc1nc(-c2ccccc2)c(-c2ccccc2)o1	i	-0.09
CCOc1ccccc1NC(=O)COC(=O)/C=C/c1ccc(OC)c(OC)c1	i	-1.5
CC(C)(C)C(=O)NC(=S)Nc1ccccc1F	i	1.2
O=C(COc1ccc(F)cc1Cl)Nc1cc(S(=O)(=O)N2CCOCC2)ccc1N1CCCCC1	i	-0.93
Cc1cc(NC(=O)CSc2c3c(nc4ccccc24)CCC3)no1	i	-1.8
NS(=O)(=O)c1ccc(CCNC(=O)COC(=O)C2CCCN2C(=O)c2cccs2)cc1 (configuration not stated)	i	-1.5
c1ccc2c(c1)OCC(c1nnc3sc(-c4ccc5c(c4)OCO5)nn13)O2 (configuration not stated)	i	-0.05
Cc1cccc(C)c1NC(=S)Nc1ccc(Cl)c(Cl)c1	i	-0.07
Cc1cc(C)c(NC(=O)CN2C(=O)NC(Cc3ccccc3)C2=O)c(C)c1 (configuration not stated)	i	2.4
COc1ccccc1NC(=O)CSc1nc2c(sc3ccccc32)c(=O)n1CCN(C)C	i	0.2
COc1ccc(-c2nc(-c3cccc(C)c3)nc(N3CCN(C)CC3)c2C#N)cc1	i	1.1
COc1ccccc1OCC(=O)NNC(=O)c1cnccn1	i	-1.7
CCCNC(=O)COC(=O)/C=C/c1ccco1	i	-0.18
COc1ccc(CCN(C)C2CCCN(S(=O)(=O)c3ccccc3)C2)cc1OC (configuration not stated)	i	-0.97
Cc1ccc(S(=O)(=O)Oc2ccc(N3C(=O)C4C5CCC(C5)C4C3=O)cc2)cc1 (configuration not stated)	i	0.08
CCC(C)n1c(SCC(=O)Nc2ccccc2C(F)(F)F)nc2ccsc2c1=O (configuration not stated)	i	-2.7
O=C(CSc1ncnc2nc[nH]c12)Nc1nnc(SCc2ccc(Cl)c(Cl)c2)s1	i	-0.94
Cc1nn(CCC(=O)N2CCN(S(=O)(=O)c3ccc(Cl)cc3)CC2)c(C)c1C	i	-0.68
COc1cc(C2CC(=O)N3CN(Cc4ccccc4)CSC3=C2C#N)ccc1OCc1ccccc1 (configuration not stated)	i	0.03
O=C(c1cccc(OC2CCN(Cc3ccc(F)cc3Cl)CC2)c1)N1CCCC1	i	2.8
CCOC(=O)c1c(NC(=O)CNC2CCCc3ccccc32)sc(C(N)=O)c1C (configuration not stated)	i	-0.27
CC(C)NC(=O)NNC(=O)Cn1nnc(-c2cccc(Cl)c2Cl)n1	i	0.55
COc1ccc(/C=C/C(=O)NC(=S)Nc2ccc(S(=O)(=O)Nc3nccnc3OC)cc2)cc1	i	-1.5
COC(=O)C(NNc1ccccc1C)(NC(=O)c1ccc(F)cc1)C(F)(F)F (configuration not stated)	i	1.8
Cc1ccc(-c2nc3ccccc3nc2NN)cc1	i	-0.23
CCOC(=O)C1=C(C)NC2=C(C(=O)C(C(=O)OCC)C(c3ccco3)C2)C1c1ccccn1 (configuration not stated)	i	-1.1
